A1 apoptosis 2 – A1 inhibitors via caspase activation, primary screen, cell-based, luminescence, HTS, two replicates; MEF A1-2A-BIM cells, caspase-Glo luminescence, 3 h; percent of clofoctol response, DMSO zero; caspase activation, % (test concentration not listed); 24,000 tested, under 10 active; AID 2465, 2010; in the data active = caspase activation above about 5.9%;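 note: wells of about 30 µL received 50 nL stock; the first replicate is given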
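Material: A1-2A-BIM-expressing MEF cells. Buffer or medium: RPMI-1640 plus 10% FBS. Incubation: cells settled overnight, compound exposure 3 h at 37 °C, 5% CO2. Signal: Caspase-Glo 3/7 luminescence, 1 h at room temperature.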
* hit, by the source's call. An excerpt; rates above refer to the full screens.

SMILES	A1 apoptosis 2
C[C@H](CO)N1C[C@H](C)[C@H](CN(C)C(=O)Oc2ccc3ccccc3c2)OCc2cn(nn2)CCCC1=O	-0.4
C[C@H]1CN([C@@H](C)CO)C(=O)CCCn2cc(nn2)CO[C@H]1CN(C)C(=O)Oc1ccc2ccccc2c1	0.9
C[C@@H]1CN([C@@H](C)CO)C(=O)CCCn2cc(nn2)CO[C@@H]1CN(C)C(=O)Oc1ccc2ccccc2c1	0.0
C[C@@H]1CN([C@@H](C)CO)C(=O)CCCn2nncc2CO[C@H]1CN(C)C(=O)Oc1ccc2ccccc2c1	0.1
COc1ccc(OC(=O)N(C)C[C@H]2OCc3cnnn3CCCC(=O)N([C@@H](C)CO)C[C@@H]2C)cc1	-0.5
COc1ccc(OC(=O)N(C)C[C@@H]2OCc3cnnn3CCCC(=O)N([C@@H](C)CO)C[C@@H]2C)cc1	0.5

Looked up one by one from above, 2 records:
SMILES	A1 apoptosis 2
C[C@@H]1CN([C@@H](C)CO)C(=O)CCCn2nncc2CO[C@H]1CN(C)C(=O)Oc1ccc2ccccc2c1	0.1
COc1ccc(OC(=O)N(C)C[C@H]2OCc3cnnn3CCCC(=O)N([C@@H](C)CO)C[C@@H]2C)cc1	-0.5

Given comma-delimited: part of the list above.
canonical_smiles,A1 apoptosis 2
C[C@@H]1CN([C@@H](C)CO)C(=O)CCCn2cc(nn2)CO[C@@H]1CN(C)C(=O)Oc1ccc2ccccc2c1,0.0
C[C@@H]1CN([C@@H](C)CO)C(=O)CCCn2nncc2CO[C@H]1CN(C)C(=O)Oc1ccc2ccccc2c1,0.1
